Ba CapD inh – Bacillus anthracis CapD inhibitors, primary screen, biochemical, fluorescence intensity | CapD gamma-glutamyltranspeptidase (Bacillus anthracis Ames Ancestor) | purified CapD enzyme, fluorescence intensity read-out; hits give low values; some hits fall short of the stated cut | z-score (no concentration beside the values) | 140,000 compounds, 0.23% hits | AID 492967, 2010;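 active means z-score under -4 in either of two replicates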;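 further: stock transfer was 100 nL into about 40 µL; score is relative to mean and spread of the plate; one replicate is shown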
AID504770 – growth inhibition of E. coli YBA685, primary screen, V. cholerae RctB inhibitors | E. coli YBA685 rctB-dependent plasmid, OD600 growth, 3 h; hits give low values | z-score (test concentration not listed) | 130,000 compounds, 0.27% hits;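 active means z-score under -2 on both plates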;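 further: wells of about 30 µL received 100 nL stock; score is relative to mean and SD of the test wells; the first replicate is given; strong numbers were not always called active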
Numbers without * were called inactive; nt = no result given. An excerpt (hit frequency here may not be typical).

Compound | Ba CapD inh | AID504770
CN1C(=O)N(CCO)C2NC(=O)NC21 (stereo not drawn) | -0.59 | nt
CCNC(=S)NNc1ccc(C)cc1C | nt | 0.65
COc1cccc(Cn2c(=O)c3ccccc3n3nc(C)cc23)c1 | 1.4 | -0.05
Cc1ccsc1C(=O)OCC(=O)N(C)C1CCCCC1 | 0.76 | -0.25
COc1ccc(C2C(=O)N(CCc3ccccc3)CC(=O)N2C2CCCCC2)cc1 (stereo not drawn) | -1.1 | -1.1
COc1cc(CN2CCN(CCOC(=O)NCCc3c[nH]c4c(C)cccc34)CC2)cc2c1OCO2 | 0.12 | nt
O=C1Nc2cc(C(=O)NCc3ccccc3)ccc2S/C1=C\c1ccccc1 | -0.12 | -0.35
Brc1ccccc1Nc1ncnc2c1cnn2Cc1ccccc1 | -0.28 | nt

New compounds follow.
Compound | Ba CapD inh | AID504770
COc1ccc(N2C(=O)[n+]3ccccc3C2C(=O)Nc2c(C)cccc2C)cc1 (stereo not drawn) | -0.69 | -0.7
COc1ccccc1NC(=O)C1=C(C)NC(SCC(=O)Nc2ccc(I)cc2)=C(C#N)C1c1ccccc1 (stereo not drawn) | -0.45 | nt
CCC(C(=O)NCc1ccccc1)n1c2ccccc2c2cn[nH]c(=O)c21 (stereo not drawn) | 4.3 | 0.5
O=C(Nc1ccc(-c2noc(-c3ccc(Cl)cc3)n2)cc1)c1ccc(Br)o1 | 0.21 | nt
Cc1ccc(S(=O)(=O)NC(=NCc2ccc(Cl)cc2)Nc2nc(C)cc(C)n2)cc1 | 0.77 | 0.25
CN(Cc1ccccc1)C(=O)COC(=O)c1cc(Cl)nc(Cl)c1 | nt | -0.1
O=C1N/C(=N/N=C/c2ccco2)SC1Cc1ccc(SC(F)F)cc1 (stereo not drawn) | nt | -0.6
Cc1ccc(Sc2nc(-c3ccccc3)[nH]c2C=Nc2ccc(C)c(C)c2)cc1 | -0.71 | nt

(list continues)
Compound | Ba CapD inh | AID504770
O=C(CCCCl)Nc1cccn(Cc2c(Cl)cccc2Cl)c1=O | 0.72 | nt
O=C(O)C(Cc1cnc[nH]1)NS(=O)(=O)c1cccs1 (stereo not drawn) | nt | 1.4
CN(Cc1ccccc1)C(=O)c1cc(-c2ccc3c(c2)OCO3)on1 | 0.045 | 1.5
COC(=O)c1ccc(CN2CCN(CCN3C(=O)C4C5C=CC(C5)C4C3=O)CC2)cc1 (stereo not drawn) | -0.14 | nt
CC(NC(=O)c1ccco1)C(c1cccs1)N1CCOCC1 (stereo not drawn) | -0.47 | -0.2
CC1CN(C2CCN(CC3CC4C=CC3C4)CC2)CC(C)O1 (stereo not drawn) | -0.2 | -1
CCOc1ccccc1N(C)C(=O)c1cc(S(=O)(=O)N2CCCc3ccccc32)ccc1F | -0.005 | nt
CCNCc1cccc(F)c1 | nt | 0.15

More records
Compound | Ba CapD inh | AID504770
CCOC(=O)Nc1ccc2c(c1)OCO2 | nt | -0.8
Cc1cc(C)n2ncc(/C(N)=N/OC(=O)c3ccccc3F)c2n1 | 5.7 | -0.45
CC(C)CN(CC(C)C)c1ncnc2c1cnn2-c1ccccc1 | 0.08 | 0.3
CCC(=O)c1ccc(OCc2cn3cc(Cl)ccc3n2)cc1 | nt | -0.35
O/N=C/c1sccc1Oc1ccccc1 | -0.26 | nt
CC(C)c1ccc(NC(=O)c2ccc(N(C)C)cc2)cc1 | 0.81 | 0.6
COc1ccc(OC)c(C2C3=C(CC(C)(C)CC3=O)Nc3ccc4ccccc4c32)c1 (stereo not drawn) | 17 | nt
O=C1Nc2ccc(Br)cc2C1(O)N1CCCCCC1 (stereo not drawn) | -0.3 | nt

The list continues.
Compound | Ba CapD inh | AID504770
N#Cc1cc(-c2ccccc2)oc1N | 72 | nt
COc1ccc(NC(=O)C2=C(C)NC(=O)NC2c2ccc(Cl)cc2)cc1 (stereo not drawn) | -0.24 | nt
CC(C)(C)c1ccccc1NS(C)(=O)=O | 0.71 | -0.55
Cc1ccc(C(C(=O)Nc2c(C)n(C)n(-c3ccccc3)c2=O)N(Cc2ccco2)C(=O)Cc2c[nH]c3ccccc23)cc1 (stereo not drawn) | 0.47 | 0
CN(C)c1ccc(C2N=C(c3ccccc3)NO2)cc1 (stereo not drawn) | 103 | -0.65
CCOC(=O)Cc1csc(NS(=O)(=O)c2cc(C)c(Cl)cc2Cl)n1 | 0.88 | 0.05
O=C(CSc1ncccn1)N/N=C/c1cccc2c1OCCO2 | 19 | 0.4
CCOc1ccccc1Nc1nnc(SCC(=O)NC(C)(C#N)C2CC2)s1 (stereo not drawn) | nt | -0.85

Remaining list, next part.
Compound | Ba CapD inh | AID504770
COc1ccc([N+](=O)[O-])cc1-c1ccc(/C=c2/sc3nc4ccccc4n3c2=O)o1 | 0.21 | nt
OC(CNc1ncnc2cc(Cl)ccc12)c1ccc2ccccc2c1 (stereo not drawn) | 0.1 | nt
C=CCN1C(=O)C(=O)/C(=C(/O)c2ccc(C)cc2)C1c1ccc(Br)cc1 (stereo not drawn) | 0.71 | nt
COc1cc(OC)nc(CSCCNC(=O)C2CCCCC2C(=O)O)n1 (stereo not drawn) | -0.45 | nt
CCCCCCCCCCCC(=O)N1CC(=O)NC(=O)C1 | 1.6 | nt
O=C(Cn1cnc2nc3c(cc2c1=O)CCCC3)NCCC1=CCCCC1 | 16 | -0.85
CCOC(=O)c1cnc2ccccc2c1Cl | -0.3 | -0.25
CCSc1ccccc1C(=O)Nc1nncs1 | 0.19 | -0.65

Further results:
Compound | Ba CapD inh | AID504770
COc1ccc(/C=C2\N=C(c3ccc(Cl)cc3)N(c3ccc(Cl)cc3C)C2=O)cc1OC | -0.43 | nt
c1ccc2c(CNC3CCCCC3)c[nH]c2c1 | 0.39 | -1.1
O=C(COc1ccc(Cl)cc1)Nc1c(-c2ccc(F)cc2)nc2ccccn12 | -0.49 | -0.15
C=CCn1c(-c2cccn(Cc3ccc(Cl)cc3Cl)c2=O)n[nH]c1=S | 5.9 | nt
COCCn1c(=O)c2sc3ccccc3c2n(CCN2CCOCC2)c1=O | 19 | -0.85
CC1CCCCN1S(=O)(=O)c1cc(Cl)ccc1Cl (stereo not drawn) | -0.29 | -1.1
C=CCSc1nnc(NC(=O)Cc2coc3ccc(OC)cc23)s1 | -0.59 | 0.15
Cc1c(C(=O)N2CCC(C(N)=O)(N3CCCCC3)CC2)sc2ncnc(N3CCC(C)CC3)c12 | 1.4 | nt

Entries of single compounds, quoted from the list:
O=C(COc1ccc(Cl)cc1)Nc1c(-c2ccc(F)cc2)nc2ccccn12 reads Ba CapD inh = -0.49; AID504770 = -0.15
c1ccc2c(CNC3CCCCC3)c[nH]c2c1 reads Ba CapD inh = 0.39; AID504770 = -1.1

Following part.
Compound | Ba CapD inh | AID504770
CC(=O)N(C(C)=O)c1nccc(-c2c(-c3ccccc3)noc2C)n1 | 8.5 | 1.8
COc1cc(C=Nc2ccc(N=Cc3ccc(OC(C)=O)c(OC)c3)cc2)ccc1OC(C)=O | 0.59 | -0.65
O=C(NCC1CCCO1)c1cc2nc(-c3ccc(Br)cc3)cc(C(F)(F)F)n2n1 (stereo not drawn) | 0.21 | nt
O=C(NCCCc1ccccc1)NC1CC(=O)N(c2ccc(F)cc2)C1 (stereo not drawn) | nt | 0.3
COc1ccc(C(=O)CCC(=O)O)cc1 | -0.29 | nt
C=CCC1c2cccc(C(=O)O)c2C(=O)N1c1ccc(F)cc1 (stereo not drawn) | -0.51 | -0.1
COc1ccc(CNS(=O)(=O)c2ccc3c(c2)N(C)CCO3)cc1 | 1.5 | 0.85
O=C(O)CCSc1ccccc1C(=O)O | -0.47 | -0.45

(continued)
Compound | Ba CapD inh | AID504770
N#CCSc1nc(-c2ccccc2)c2cc(Cl)ccc2n1 | 2.9 | 0.55
O=C(COc1cc(Cl)c(Cl)cc1Cl)Nc1cccc(C(F)(F)F)c1 | -0.9 | nt
CCN(C(=S)NC)c1cccc2ccccc12 | nt | -0.65
CC(=O)Nc1sc2c(c1SC#N)CCCC2 | 0.08 | -0.55
CC1=CCC(COC(=O)CN2CCCCC2)CC1 (stereo not drawn) | -0.69 | -0.3
O=C(CCc1nnc2ccc(N3CCCC3)nn12)NCc1ccccn1 | 0.05 | 0.05
CCN(CC)C(=O)CN1C(=O)C2(NC(=O)c3ccccc3N2)c2ccccc21 (stereo not drawn) | 6.8 | nt
N=CC1=C(O)c2ccccc2C1=O | -1.8 | -0.35

Carrying on:
Compound | Ba CapD inh | AID504770
COCCOC(=O)C1=C(C)NC2=C(C(=O)CC(c3ccc(OC)c(OC)c3)C2)C1c1ccc(F)cc1 (stereo not drawn) | 14 | nt
COc1ccc(-n2c(-c3ccc(Br)cc3)nc3cc4c(cc32)OCO4)cc1 | -0.81 | -1.4
O=C1c2cnccc2CN1Cc1ccccc1 | 0.5 | -0.5
O=C(NCCC1=CCCCC1)c1ccc2c(c1)[nH]c(=O)n2C1CCCC1 | nt | 1.4
Cc1cc(C)nc(SC(C)CN(C)C)n1 (stereo not drawn) | 0.45 | 0.7
COc1ccc(Cl)cc1NC(=O)c1nnn(CC(=O)Nc2c(C)cccc2C)c1N | 0.35 | 0.2
CC(=O)Nc1ccc2nc3c(=O)n(C4CCCCC4)c(=O)[nH]c3nc2c1 | -0.93 | 1.6
Cc1cc(N2CCN(c3ccccc3F)CC2)n2nc(C)c(-c3ccc(Cl)cc3)c2n1 | 13 | 0.1

Retrieved one by one from the entries so far:
Compound | Ba CapD inh | AID504770
Cc1cc(N2CCN(c3ccccc3F)CC2)n2nc(C)c(-c3ccc(Cl)cc3)c2n1 | 13 | 0.1
O=C(NCCC1=CCCCC1)c1ccc2c(c1)[nH]c(=O)n2C1CCCC1 | nt | 1.4
COCCOC(=O)C1=C(C)NC2=C(C(=O)CC(c3ccc(OC)c(OC)c3)C2)C1c1ccc(F)cc1 (stereo not drawn) | 14 | nt
O=C1c2cnccc2CN1Cc1ccccc1 | 0.5 | -0.5
Cc1cc(C)nc(SC(C)CN(C)C)n1 (stereo not drawn) | 0.45 | 0.7

New compounds follow
Compound | Ba CapD inh | AID504770
COc1ccc2oc(=O)c(S(=O)(=O)c3ccc(C(C)C)cc3)cc2c1 | -0.14 | -0.05
CN1CCN(C(=O)CCCC(=O)O)CC1 | nt | -0.8
CCc1ccn2cc(-c3cc(-c4ccccc4)no3)nc2c1 | 34 | -0.45
CCNc1nc(NCC)nc(SCCOC(=O)Nc2ccccc2)n1 | -0.11 | nt
C=CCN1C(=O)N(CC=C)c2cccc3cccc1c23 | -0.51 | 0.15
CC(=O)Nc1cccc(C(=O)N2CCCCC2)c1 | -0.28 | -0.1
CCCCCCCCC(=O)OC1CCC2(C)C(=CCC3C2CCC2(C)C(C(C)CCCC(C)C)CCC32)C1 (stereo not drawn) | -0.23 | nt
CC(C(=O)NCc1ccco1)n1c2ccccc2c2cnn(C)c(=O)c21 (stereo not drawn) | -1.3 | 0.5

New compounds follow
Compound | Ba CapD inh | AID504770
O=C(ON1C(=O)c2ccccc2C1=O)C1CCCCC1 | -0.57 | -1
O=C(OCCn1ncc2ccccc2c1=O)c1cccs1 | 0.54 | 0.15
CCN1CCN(C(=O)C(c2ccccc2)N2Cc3ccccc3C2=O)CC1 (stereo not drawn) | -0.19 | 0.05
CC(=O)N(CN1C(=O)C2C3c4ccccc4C(c4ccccc43)C2C1=O)c1ccc(Cl)c(Cl)c1 (stereo not drawn) | 0.03 | nt
O=C1/C(=C/c2cc3ccccc3o2)CC/C1=C\c1cc2ccccc2o1 | -0.065 | -0.15
COc1ccccc1N1CCN(C/C(N)=N/O)CC1 | -0.46 | 0.9
COc1ccc(NCc2c(C#N)c(C)nn2-c2ccccc2)cc1 | nt | -0.55
O=C(CCCn1c(=O)c2cccn2c2cccnc21)NCCc1ccccc1 | 6.9 | -0.55

Going on with the list.
Compound | Ba CapD inh | AID504770
COC(CNc1ncnc2c1c(-c1ccccc1)cn2-c1ccccc1)OC | 1.1 | 0.15
CCOC(=O)C1=C(Cn2nnc(C(=O)OC)c2C(=O)OC)NC(=O)NC1c1ccccc1 (stereo not drawn) | 0.39 | 1.3
O=C(Nc1ccc(SCc2nc(OCC(F)(F)F)cc(OCC(F)(F)F)n2)cc1)Nc1ccc(F)cc1F | -0.39 | nt
CN1CCN(c2c(F)c(N)c3c(=O)c(C(=O)O)cn(-c4ccc(F)c(F)c4)c3c2F)CC1 | -0.17 | nt
COc1cc(-c2nnc3ccc4ccccc4n23)cc(OC)c1OC | -0.23 | nt
Cc1ccc(S(=O)(=O)NCC(c2ccccc2)N2CCCCC2)cc1 (stereo not drawn) | -0.24 | -1
Cc1cc2c3c([nH]c2cc1S(=O)(=O)NCCc1ccco1)CCCC3=O | 0.04 | 0.45
COc1ccc(NS(=O)(=O)c2ccc3oc(=S)n(CN4CC(C)OC(C)C4)c3c2)cc1 (stereo not drawn) | nt | -0.1

(cont.)
Compound | Ba CapD inh | AID504770
COC(=O)c1cc(N2C(=O)C3C4c5ccccc5C(c5ccccc54)C3C2=O)ccc1Cl (stereo not drawn) | -0.015 | nt
O=C(CSc1ccc2nnc(-c3ccccc3)n2n1)c1ccccc1 | 2.5 | -0.85
Cc1ccc(NC2=NC(C)(C)CS2)cc1Cl | nt | -0.1
CCOC(=O)c1cnc2ccccc2c1Nc1ccccc1C | -0.035 | nt
CCC(C)NC(=O)Cc1coc2cc(C)ccc12 (stereo not drawn) | 0.86 | -0.45
O=C(O)c1ccc(CN2C(=O)COc3ccccc32)o1 | nt | -0.05
Cc1cc(=O)n(-c2cccc(C(F)(F)F)c2)[nH]1 | -0.17 | -0.05
Cc1ccc(C)c(S(=O)(=O)NCc2ccccc2)c1 | nt | -0.25

(more compounds)
Compound | Ba CapD inh | AID504770
O=C(Sc1nnnn1-c1ccccc1)c1ccccc1Br | -0.25 | -0.35
O=C(O)Cc1cccc2ccccc12 | nt | -1.3
CC(=O)Nc1cccc(OCCCN2CNc3c(c(=O)n(C)c(=O)n3C)C2)c1 | -0.17 | nt
CCOC(=O)C(NC(=O)c1c[nH]c2ccc(S(=O)(=O)N(C)C3CCCCC3)cc2c1=O)C(=O)OCC | 1.1 | nt

Screens deposited in PubChem BioAssay by ICCB-Longwood Screening Facility, Harvard Medical School.
